# Bioassay records (PubChem)
# Menin MLL FP FL – menin-MLL binding inhibition, fluorescein peptide | Fluorescence polarization, fluorescein-MLL peptide displacement from menin | 290,000 tested, under 10 active | FP activity change, % at 61.4 µM; inconclusive = falling polarisation curve, or a change in total fluorescence; inactive = total fluorescence flat and polarisation flat or rising; no compound was filed as active; the % refers to the polarisation; negative = inhibition;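 note: % of control where 0% means no effect; inhibitors lower the polarisation; unlabelled MLL peptide was the positive control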
# ClpP mod – qHTS Assay for Activators of ClpP; ATP-dependent Clp protease proteolytic subunit (Bacillus subtilis (strain 168)), P80244; purified B. subtilis ClpP, FRET peptide cleavage, 20 min; Potency, µM (series often up to 57.5 µM), without a hit: top-dose activity change, negative = active; 340,000 tested, 1.9% active; active = well fitted falling curve with a large enough effect; inconclusive = small, poorly fitted or top-dose-only effect; inactive = no such curve, though single readings can be large or run the other way; note: potency is the fitted concentration of half-maximal effect; the source files actives as falling curves though it sought activators and does not explain the sign; nearly all actives have a fitted effect of over 65% in size; many hits overshoot -100%
# Target sequence (P80244 whole entry, looked up): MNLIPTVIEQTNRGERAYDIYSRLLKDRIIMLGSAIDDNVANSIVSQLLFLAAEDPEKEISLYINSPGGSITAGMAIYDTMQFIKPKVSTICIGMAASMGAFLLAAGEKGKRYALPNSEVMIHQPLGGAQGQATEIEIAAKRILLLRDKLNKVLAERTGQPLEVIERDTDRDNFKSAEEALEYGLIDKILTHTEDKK
#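 FRET quenching reversal measured ClpP activation: 10 microg/mL B. subtilis ClpP at pH 8 with the FRET-FV decapeptide, read at 430 nm after 320 nm excitation. The 20-min minus 0-min signal was scaled between DMSO/no-enzyme wells and ADEP (5.8 microM final).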
# PINK1 modulator – PINK1 expression modulation. 410,000 tested, 0.2% active. PINK1 immunofluorescence, high-content cytometry, 24 h. Potency, µM (highest dose often 76.6 µM), inactives show at the highest dose activation (PINK1 increase), actives largely listed as activators; active = well fitted activation curve with a large enough effect; inconclusive = small, poorly fitted or top-dose-only effect; inactive = flat fitted curve, though single readings scatter; cell line not stated here;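 note: potency is the fitted concentration of half-maximal effect; % of control where 0% means no effect; nearly all actives have a fitted effect of over 65% in size; a mitochondrial uncoupler was the plate control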
#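 Stable cell line treated 24 h with compounds at 5 concentrations (CCCP controls), then fixed and immunostained for PINK1 plus nuclear and cell stains; PINK1 immunofluorescence quantified by laser-scanning microplate cytometry.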
# Sfp inh – blocks B. subtilis Sfp PPTase activity | Q9F4F7 | Biochemical Sfp PPTase activity, qHTS | Potency, µM, for the others: max response, negative = inhibition, actives largely listed as inhibitors | 310,000 tested, 3.5% active | AID 1490; active = well fitted inhibition curve with a large enough effect; inconclusive = small, poorly fitted or top-dose-only effect, or another doubt; inactive = no such curve, though single readings can be large or run the other way;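 note: the enzyme is Sfp with the accession as filed and its product quenches rhodamine fluorescence; potency is the fitted concentration of half-maximal effect; 0% = enzyme reaction without inhibitor and -100% = no enzyme wells; top concentration of the series not given in the record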
#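 Reaction rates are the 30-min fluorescence difference (ex 525, em 598 nm) in wells containing 15 nM Sfp, 5 uM rhodamine-CoA and 12.5 uM BHQ-2-YbbR at pH 7.6 with 10 mM MgCl2.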
# D2 agonist – agonists of human D2 dopamine receptor (beta-arrestin). P14416. DiscoveRx PathHunter D2 beta-arrestin, luminescence, 90 min; 100% = 57 uM dopamine signal. activation, % (test concentration not listed). 360,000 tested, 0.084% active. AID 624465; in the data active = activation above about 40%; inconclusive = about 15% to 40%; inactive = below about 15%; note: compound concentration not given in the record; the text of the record calls up to 30% inactive
# Target sequence (P14416 whole entry, looked up): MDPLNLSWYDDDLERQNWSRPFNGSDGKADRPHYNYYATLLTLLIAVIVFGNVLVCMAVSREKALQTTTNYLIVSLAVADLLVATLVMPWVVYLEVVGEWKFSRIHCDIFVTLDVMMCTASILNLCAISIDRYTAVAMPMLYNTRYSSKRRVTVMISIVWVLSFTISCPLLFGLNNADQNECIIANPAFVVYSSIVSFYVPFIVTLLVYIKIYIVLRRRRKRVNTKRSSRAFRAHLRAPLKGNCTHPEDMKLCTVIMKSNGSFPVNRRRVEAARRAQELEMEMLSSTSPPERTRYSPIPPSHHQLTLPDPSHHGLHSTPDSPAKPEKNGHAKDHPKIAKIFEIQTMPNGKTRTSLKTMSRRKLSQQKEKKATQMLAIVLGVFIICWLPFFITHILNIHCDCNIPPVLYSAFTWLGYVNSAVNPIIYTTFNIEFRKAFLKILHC
#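 Agonist mode: compounds alone added to overnight-plated D2 PathHunter cells for 90 min at 37 C, with 57 uM final dopamine (EC100) defining full response. Beta-arrestin recruitment detected by chemiluminescent reagent, read after 1 h at ambient temperature.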
# gsp agonist – activates gsp, the McCune-Albright syndrome mutation. 340,000 tested, 0.13% active. gsp mutant cells, cAMP HTRF, 30 min; control for the full effect not named in the record. Potency, µM (highest dose often 76.9 µM), without a hit: at the top dose activation (cAMP increase), usual class: activators; active = well fitted activation curve with a large enough effect; inconclusive = small, poorly fitted or top-dose-only effect, or another doubt; inactive = no such curve, though single readings can be large or run the other way; cell line not stated here;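 note: phosphodiesterase inhibitor Ro 20-1724 added with compounds to block cAMP breakdown; potency is the fitted concentration of half-maximal effect; nearly all actives have a fitted effect of over 60% in size; about a fifth of the inactives were tested at one dose only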
#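 Cells in DMEM/10% FBS with G418 were pretreated with compounds in DMSO plus […] (300 uM stock) for 30 min at 37C. cAMP was measured by HTRF (cAMP-d2 plus anti-cAMP antibody-K) after 30 min at room temperature.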
# gsp antag – gsp mutant antagonism. gsp-mutant cells, cAMP HTRF, 30 min; control for the full effect not named in the record. Potency, µM (highest dose often 76.9 µM), for inactives: at the top dose activity change, negative = inhibition, most hits filed as inhibitors. 340,000 tested, 0.4% active. AID 624288; active = falling curve of any shape with a large fitted effect; inconclusive = falling curve, mostly with a smaller effect; inactive = flat or rising curve; cell line not stated here;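 note: intracellular cAMP measured with PDE inhibitor Ro 20-1724 present during compound exposure; potency is the fitted concentration of half-maximal effect; % is set by controls: 0 for no effect and ±100 for the full control effect; nearly all actives have a fitted effect of over 65% in size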
#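 HTRF cAMP read-out (cAMP-d2 plus anti-cAMP antibody-K in lysis buffer, 30 min RT). Before lysis, cells are exposed to compounds with […] for 30 min at 37C in DPBS containing Ca/Mg, BSA and Tween 20.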
# An asterisk follows results filed as active; ? = inconclusive; . = no result given; [ ] = another dose, or the depositor's remark.
SMILES	Menin MLL FP FL	ClpP mod	PINK1 modulator	Sfp inh	D2 agonist	gsp agonist	gsp antag
COC(=O)C[C@H]1C[C@@H]2c3cc(NS(=O)(=O)c4ccc(OC)cc4)ccc3O[C@@H]2[C@H](CO)O1	.	-2.9%	1.0%	.	-3.7	?	.
CC1(C)Cc2c(C#N)c(NCCO)nc(-c3ccco3)c2CO1	8.0	.	0.5%	16µM*	0.6	3%[15.4 µM]	-7%
O=C(NNS(=O)(=O)c1ccc(F)cc1)c1ccccc1O	0.0	-1.8%	3.2%	11%	4.2	5%	7%
Nc1nc(NCc2ccccc2)nc(-c2ccccc2)n1	3.0	0.4%	1.2%[38.3 µM]	0%	2.1	-1%	-6%
O=C(CN1CCCCCC1)Nc1ccc(Br)cc1	9.4	-1.0%	-5.3%[38.3 µM]	3%	7.0	-2%	5%
COc1ccc([C@@H]2[C@@H]3C(=O)N(C(C)(C)C)C(=O)[C@@H]3[C@]3(Cc4ccccc4)C(=O)N(c4ccccc4)C(=O)N23)cc1	.	1.0%	-0.2%	.	-3.6	.	1%
O=C(N/N=C(/c1ccccc1)c1ccncc1)c1ccc2c(c1)OCO2	-0.3	-1.9%	2.3%	16%	-5.2	-19%	-10%
CC1CCN(c2ccc(C(=O)NCCc3ccccc3)cn2)CC1	2.2	-9.5%	0.1%[38.3 µM]	1%	-0.4	4%	-3%
O=C(C1=C[C@@H](C2CC2)C[C@@H](OCCCCO)O1)N1CCOCC1	4.8	0.1%	-0.8%	2%	-2.0	1%	1%
CS(=O)(=O)N(CC(=O)NCC1CCCO1)c1cccc(Cl)c1 (stereo not drawn)	3.0	.	-1.3%	17%	6.2	-3%[15.4 µM]	.
CCOc1ccc(C(=O)N2CCN(c3cccc(C)c3C)CC2)cc1	1.3	-3.1%	-0.9%	-14%	0.0	11%	-9%
O=C(NCCn1cc(SCC(=O)N2CCOCC2)c2ccccc21)c1c(F)cccc1F	0.7	0.0%	0.6%	4%	-1.6	-2%	-4%
Nc1ncn(C23CC4CC(CC(C4)C2)C3)n1	-0.7	-0.8%	2.7%[38.3 µM]	11%	-3.5	1%	-1%
O=C(N/N=C/c1ccncc1)C1C2CCCCCCC21 (stereo not drawn)	8.4	1.3%	0.9%	-16%	-1.0	-14%	10%
CCCNC(=O)C1(C)CCCN(C(=O)c2ccc(F)cc2Cl)C1 (stereo not drawn)	.	1.8%	2.3%	.	-4.2	.	.
COc1ccc2c(c1)[nH]c1c(=O)n(/N=C/c3ccc(OC)c(CN4CCCC4)c3)cnc12	0.6	-1.5%	2.5%	1%	-5.7	-34%[inhibitor]	-9%
N#Cc1c(-c2ccccc2)nc(SCC(=O)N2c3ccccc3Sc3ccccc32)[nH]c1=O	6.5	-3.9%	4.9%	6%	-0.2	?	-7%
CC12C=CC(=O)C=C1CCC1C3CCC(O)(C(=O)CO)C3(C)CC3OC312 (stereo not drawn)	-0.1	.	3.0%	8%	6.4	11%[15.4 µM]	.
O=C1CC(c2ccccc2)NC(=O)N1 (stereo not drawn)	0.6	-0.3%	-1.3%	16%	0.1	7%	-5%[15.4 µM]
CC(OC(=O)c1cccc(S(=O)(=O)N2CCCCC2)c1)C(=O)NCC1CCCCC1 (stereo not drawn)	.	.	3.7%	.	-2.0	-28%[15.4 µM]	-11%
C=COCCCNc1ncnc2sc(-c3ccccc3)cc12	1.6	3.2%	7.5%	-7%	4.7	-1%	?
Oc1c(Br)cc(Br)cc1/C=N/c1nccs1	.	-0.4%	4.0%	.	-8.4	?	-19%
CCN(CC)S(=O)(=O)c1ccc(NC(=O)c2ccc(Sc3nncn3C)c([N+](=O)[O-])c2)cc1	10	-1.3%	-0.2%	2%	2.8	4%	-5%
Cc1ccnc(N2CCC(C(=O)NNC(=O)c3ccccc3)CC2)n1	2.6	-23%	4.2%[38.3 µM]	17%	-0.8	?	0%
CN1CCN(C(=S)SCC(=O)N2CCCc3ccccc32)CC1	-0.3	3.7%	0.9%	4%	-5.7	-52%[inhibitor]	9%
NC(=O)CCN1CCN(C(=O)c2ccc3nc(Cc4cccc(Cl)c4)oc3c2)CC1	0.7	1.2%	2.0%	14%	-3.2	7%	3%
COC(=O)CC1COc2ccccc2N1C(=O)c1ccc(OC)cc1 (stereo not drawn)	-6.3	-1.3%	-0.1%	18%	-3.6	-8%	5%
O=C(COC(=O)/C=C/c1ccc2c(c1)OCO2)Nc1ccccc1	1.6	.	6.6%	18%	-4.0	-10%[15.4 µM]	.
COc1cccc(C(=O)NNC(=O)CCC(=O)O)c1	-1.2	-0.8%	1.8%	24%	6.2	-9%	11%
CCC(=O)Nc1cccc(C(=O)/C=C/c2ccccc2)c1	-0.3	16µM*	7.9%	?	-2.7	-25%	-3%

# An excerpt from above, showing only gsp agonist, PINK1 modulator and D2 agonist.
SMILES	gsp agonist	PINK1 modulator	D2 agonist
O=C(CN1CCCCCC1)Nc1ccc(Br)cc1	-2%	-5.3%[38.3 µM]	7.0
COc1ccc([C@@H]2[C@@H]3C(=O)N(C(C)(C)C)C(=O)[C@@H]3[C@]3(Cc4ccccc4)C(=O)N(c4ccccc4)C(=O)N23)cc1	.	-0.2%	-3.6
O=C(N/N=C(/c1ccccc1)c1ccncc1)c1ccc2c(c1)OCO2	-19%	2.3%	-5.2
CC1CCN(c2ccc(C(=O)NCCc3ccccc3)cn2)CC1	4%	0.1%[38.3 µM]	-0.4

# (further entries)
SMILES	Menin MLL FP FL	ClpP mod	PINK1 modulator	Sfp inh	D2 agonist	gsp agonist	gsp antag
S=C(NCc1ccccc1)NCc1ccccc1	3.0	0.6%	-5.9%[38.3 µM]	-4%	1.4	-21%	-3%
COc1cc([N+](=O)[O-])ccc1NC(=S)NCc1ccccn1	-1.7	-1.4%	-0.2%	11%	-1.7	-4%	-19%
Cc1ccc(O)c(C(=O)c2cnc3c(c2)c(C)nn3-c2ccccc2)c1	12	0.2%	4.3%	-13%	-2.4	-11%	-16%
CCc1ccccc1NC(=O)CN(C)C(=O)Cn1cc(C(F)(F)F)cc(Cl)c1=O	-0.4	-10%	-2.4%	22%	-2.7	18%	7%
CCCOc1ccc(NC(=O)CC2C(=O)N(C)C(=S)N2Cc2ccc3c(c2)OCO3)cc1 (stereo not drawn)	4.3	-2.1%	?	10%	-1.4	8%	-6%
CCSC(=O)N=Nc1ccc(O)cc1	.	1.0%	2.1%	.	4.3	-24%	-2%
CCN1CCc2c(OCc3ccccc3)cccc2C1=O	3.3	0.9%	5.3%	-9%	-0.6	-7%[15.4 µM]	7%
CC(CC(=O)Nc1ccc2c(c1)c(=O)n(C)n2Cc1ccc(Cl)cc1)C(F)(F)F (stereo not drawn)	.	4.5%	0.2%	.	1.5	.	.
O=S1(=O)C=CC(c2ccccc2)C1 (stereo not drawn)	1.7	.	1.9%	18%	-3.0	0%[15.4 µM]	16%
CCC(C(=O)NCCc1c[nH]c2cc(OC)ccc12)c1ccccc1 (stereo not drawn)	1.4	.	1.4%	4%	-5.1	-4%	-8%
O=C(O)c1cn(C2CCCCC2)c2ccccc2c1=O	1.5	-0.1%	-0.4%	14%	-10	-4%[15.4 µM]	0%
CCn1cc(C(=O)N[C@@H](CCSC)C(=O)NC(C)(C)CO)c(=O)c2cc3c(cc21)OCO3	-5.9	3.4%	2.1%	-1%	14	-8%	9%
CCCOc1ccccc1NC(=O)c1ccc(N)cc1	5.1	0.3%	-1.2%	7%	-3.6	-17%	-8%
COc1ccc(Cl)cc1-c1cc(C(=O)Nc2ccc(C(C)(C)C)cc2)[nH]n1	.	-18%	6.1%	.	9.1	.	.
Cc1ccc(C2N3CC4([N+](=O)[O-])CN2CC([N+](=O)[O-])(C3)C4(C)C)cc1 (stereo not drawn)	2.9	0.0%	3.6%	0%	1.8	-85%[inhibitor]	11%
COc1cc(Cl)ccc1NC(=S)N(CCN(C)C)C(C)c1ccncc1 (stereo not drawn)	0.1	0.6%	0.4%	8%	-3.6	-10%	-5%
C[C@]12CCC[C@H](O1)[C@H]([C@@H](O)c1ccccc1)O2	.	-2.2%	-0.1%	.	-5.8	6%	13%
O=c1cc(O)c(-c2ccccc2)c(Cl)[nH]1	1.5	0.2%	-0.1%	15%	-0.5	-1%	-6%
COC(=O)CSc1nc(-c2ccccc2)cc(-c2ccco2)c1C#N	19	25µM*	5.9%	?	-4.3	10%	?
CCOC(=O)N1CCC(Nc2c(NCCCN(CC)c3cccc(C)c3)c(=O)c2=O)CC1	2.7	-0.8%	0.1%	3%	-3.8	-51%[inhibitor]	-15%
COc1ccc(NC(=O)N2CCCC3(CCN(C(=O)c4ccco4)CC3)C2)cc1	1.9	.	0.5%	15%	.	.	.
COc1ccc(CC(=O)OCC(=O)c2ccc[nH]2)cc1	.	0.8%	2.2%	.	-5.1	-45%	8%
O=C(O)CCCCCCNC(=O)c1cncc(O)c1	0.2	.	2.2%	8%	2.7	15%[15.4 µM]	5%
CCCCOc1cccc(/C=N/NC(=O)c2csc(C)c2C)c1	-3.1	-3.1%	-0.2%	0%	-1.5	-1%	?
C=C[C@@]1(C)CC(=O)[C@]2(O)[C@@]3(C)[C@@H](O)CCC(C)(C)[C@@H]3[C@H](OC(C)=O)[C@H](O)[C@@]2(C)O1	.	-1.0%	1.5%	.	2.0	?	35%[activator]
CN(C)CCCNc1nc2cc(-c3ccc(F)cc3)sc2c(=O)n1C	.	-22%	-0.9%	.	-7.1	.	.
COc1ccc(Cn2c(=O)[nH]c3cc(C(=O)N4CCN(c5ccc(C(C)=O)cc5)CC4)ccc3c2=O)cc1	-0.4	.	8.1%	-8%	3.2	3%	-18%
CCC(C)NC(=O)c1cc(C)no1 (stereo not drawn)	2.7	1.2%	-0.7%	20%	-3.8	?	11%
